# A1 inh: inhibitors of the anti-apoptotic protein A1, read as caspase activation. MEF A1-2A-BIM cells, Caspase-Glo 3/7 luminescence, 3 h; percent of clofoctol response, vehicle zero. caspase activation, % (concentration not given with the values). 330,000 tested, 0.066% active. AID 2462;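 active = over half of replicate activation scores above 10%, or exactly half above 10 with the replicate mean above 10; inconclusive = replicate mean below 10 yet half the replicates above 10; inactive = over half of replicates below 10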;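 also: wells of about 30 µL received 50 nL stock; many hits fall short of the cut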
# T cruzi repl: blocks replication of Trypanosoma cruzi | T. cruzi beta-gal in NIH3T3, luminescence, 90 h | inhibition, % (concentration not given with the values) | 300,000 tested, 1.4% active | AID 1885;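 active = mean inhibition across valid replicates above about 55%, limit read from the data; inconclusive = mean below that limit but half or more replicates reach it; inactive = mean below it, under half of replicates reach it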;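 also: signal also drops with host cell toxicity which is not excluded here; 0% = plate median of DMSO wells and 100% = zero luminescence signal; higher percent means less beta-gal luminescence so fewer parasites; stock transfer was 50 nL into about 50 µL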
# AF4-AF9 inh: MLL-AF4/AF9 protein interaction inhibition; P42568; AlphaScreen, biotin-AF4 peptide binding to FLAG-AF9; inhibition, % at 10 µM; 350,000 tested, 0.47% active;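 active = every replicate reaching a set inhibition limit, whatever the replicate mean, cut at about 25% in these data; inconclusive = mean inhibition reaches that limit but some replicates miss it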;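 also: 0% = plate neutral control median and 100% = total signal loss; the record names both 10 and 1 µM as test concentration; the first replicate is given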
# Target sequence (P42568 whole entry, looked up): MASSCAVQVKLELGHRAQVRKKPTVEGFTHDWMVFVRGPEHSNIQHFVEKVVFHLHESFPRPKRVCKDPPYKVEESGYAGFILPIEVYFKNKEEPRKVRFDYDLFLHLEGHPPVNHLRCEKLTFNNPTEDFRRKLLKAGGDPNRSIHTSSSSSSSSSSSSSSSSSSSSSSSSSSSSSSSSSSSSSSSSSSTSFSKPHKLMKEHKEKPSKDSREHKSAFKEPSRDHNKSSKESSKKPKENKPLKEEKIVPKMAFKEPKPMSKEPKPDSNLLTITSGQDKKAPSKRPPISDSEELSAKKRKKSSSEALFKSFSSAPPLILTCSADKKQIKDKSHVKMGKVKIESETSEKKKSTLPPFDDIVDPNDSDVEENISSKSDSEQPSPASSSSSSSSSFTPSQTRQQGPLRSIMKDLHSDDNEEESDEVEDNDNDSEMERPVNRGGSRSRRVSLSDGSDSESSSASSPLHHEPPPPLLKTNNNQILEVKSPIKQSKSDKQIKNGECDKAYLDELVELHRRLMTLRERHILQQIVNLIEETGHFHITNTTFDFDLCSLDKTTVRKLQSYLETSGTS
# Ecoli rRNA inh: selective bacterial rRNA inhibition in E. coli | GFP signal change (wild-type ribosome), % (test concentration not listed) | E. coli WT GFP vs humanized-ribosome RFP mutants, fluorescence, 24 h; stronger effect = lower value; DMSO median 0, no signal -100 | 350,000 tested, 1.6% active;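 active = significant combined selectivity score with lowered wild-type GFP, culture density cut under 30%, mutant RFP and density less affected; inactive = any of these conditions unmet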; also: one replicate is shown; some compounds called inactive have numbers as strong as hits
# Vif TR-FRET: HIV-1 Vif–A3G interaction blockers – biochemical, TR-FRET, GST-Vif 1-94, biotin-A3G peptide, dose response retest, primary screen (AID 1117319) | TR-FRET GST-Vif / biotin-A3G peptide binding; higher % means a stronger effect; test concentration not given here; strong numbers were not always called active | inhibition, %; hits with a dose series show IC50 in µM | 260,000 tested, 0.57% active;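 active = above the screen mean plus three standard deviations and confirmed in dose response; inconclusive = results disagree or hit not tested in dose response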;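 also: Vif residues 1-94 fused to GST binding biotinylated APOBEC3G peptide 110-148; 0% = full assay without inhibitor and 100% = GST in place of GST-Vif; retest series ran down from 100 µM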
# RanGTP-Impb inh: disruptors of Ran-importin-beta complex formation – biochemical, FRET, CFP-Ran, YFP-importin-beta, homogeneous, primary screen | cell-free CFP-Ran/YFP-importin-beta FRET ratio | inhibition, % (no concentration beside the values) | 300,000 tested, 1.1% active;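 active = most replicates above 15%; inconclusive = exactly half above 15%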;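 also: 0% = DMSO wells and 100% = Ran loaded with GDP instead of GTP; wells of about 40 µL received 100 nL stock; the first replicate is given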
# Calb FLC: affects C. albicans growth with fluconazole | growth inhibition, % (no concentration beside the values) | AID 1979 | 300,000 tested, 0.57% active | C. albicans CaCi-2 (fluconazole-resistant clinical isolate) + fluconazole, Alamar Blue growth, 48 h;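 active = most replicates above 75%; inconclusive = exactly half above 75%; inactive = most below 75%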;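 also: all wells also contain fluconazole at 8 µg/ml as a sub-toxic cotreatment; 0% = median of DMSO wells and 100% = median of geldanamycin control wells; wells of about 8 µL received 7.5 nL stock; the first replicate is given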
# Beta apoptosis: beta cell apoptosis inhibition; protection from apoptosis, % (no concentration beside the values); INS-1E cytokine-induced death, ATP luminescence, 48 h; percent of positive-control rescue, neutral wells zero; 300,000 tested, 0.8% active;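 active = all replicates at 75% or more, or half of them and the mean; inconclusive = half reach 75% but not the mean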;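 also: 0% = cytokine-treated negative control wells and 100% = positive control rescue; higher means more ATP so stronger rescue from cytokine killing; wells of about 40 µL received 100 nL stock; the first replicate is given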
# Ecoli rRNA inh OD600: recorded beside Ecoli rRNA inh, whose call it bears; OD600 change, %; measured here: OD600 growth;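 optical density of the mix in the first replicate; 0 = DMSO median and -100 = no signal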
# Ecoli rRNA inh RFP: second read-out of Ecoli rRNA inh, no call of its own (marks repeat the call); RFP signal change, %; measured here: RFP humanized mutant strains;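 first replicate; 0 = DMSO median and -100 = no signal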
# Active calls of the source: *; u = inconclusive; x = not tested or not shown; & = joins results of further samples. Some of the compounds tested; count on the stated rates, not on these rows.
SMILES,A1 inh,T cruzi repl,AF4-AF9 inh,Ecoli rRNA inh,Ecoli rRNA inh OD600,Ecoli rRNA inh RFP,Vif TR-FRET,RanGTP-Impb inh,Calb FLC,Beta apoptosis
CC(Sc1ccccc1)C(=O)N(CCC#N)Cc1cccnc1 (stereo unspecified),0.4,x,1.5,3,-4,-0.9,-1%,x,-9,-5
C[C@]12c3[nH]c4ccccc4c3CCN1C(=O)C(CC(=O)NCCc1ccccn1)C[C@@H]2C(=O)N1CCOCC1 (stereo partly specified),0.2,x,-0.9,10,5,-2.6,3%,x,x,-3
CCOc1cc(/C=C2\C(=O)N(c3ccc(C(N)=O)cc3)N=C2C)ccc1OC(=O)c1cccs1,1.4,7,x,x,x,x,11%,2.3,1,-5
COC(=O)c1ccccc1NC(=O)C1CC(c2ccccc2O)=NO1 (stereo unspecified),-0.4,-10,x,x,x,x,1%,1.6,-7,x
CC(C)CN(C(=O)C1CCC1)c1c(N)n(Cc2ccccc2)c(=O)[nH]c1=O,-1.0,x,1.3,5,10,-1.7,x,x,x,-1
CCOC(=O)CNC(=O)c1sc(NC(=O)/C=C/c2ccccc2)nc1C,0.7,-9,4.0,13,9,-2.2,x,5.4,6,-4
COc1ccc(NS(=O)(=O)c2cccc3nsnc23)cc1OC,-0.2,-17,x,x,x,x,7%,0.4,19,-6
CCOC(=O)C1(CCCc2ccccc2)CCN(C(=O)CCc2cnccn2)CC1,-0.1,15,0.7,-11,-21,-3.8,1%,-0.5,-24,2
CC(OC(=O)C1=NN(c2ccccc2)C(=O)CC1)C(=O)NC1CCCCC1C (stereo unspecified),0.2,x,-0.1,-3,1,-4.7,5%,x,x,-3
COc1cc(NC(=O)CCc2nnc3ccc(N4CCOCC4)nn23)cc(OC)c1OC,0.1,-16,0.1,-3,-3,-1.1,2%,3.3,-9,-7
CCCCNc1c(-c2ccc(-c3ccc(C(C)=O)cc3)c(OC)c2)nc2cnccn12,-0.7,24,x,x,x,x,x,4.0,-3,8
COc1ccc(N2C(=O)CC(N3CCN(C4CCc5ccccc5C4)CC3)C2=O)cc1 (stereo unspecified),-0.8,14,x,x,x,x,4%,-4.2,-4,1
CCc1noc(C)c1C(=O)N1CCN(S(=O)(=O)c2cc(C)ccc2C)CC1,0.1,16,-0.5,4,6,-1.2,4%,-1.4,-10,x
COc1cccc(C(c2sc3nc(C)nn3c2O)N2CCN(c3ccccc3F)CC2)c1 (stereo unspecified),0.3,-11,x,x,x,x,1%,-1.4,4,3
CCN(Cc1ccc(OC)c(F)c1)C(=O)C1CCCO1 (stereo unspecified),-0.7,5,-4.3,3,9,1.4,x,3.7,2,-9
CC(=O)Nc1ccc(NC(=O)C(C)OC(=O)[C@@H]2CCCN2C(=O)c2cccs2)cc1 (stereo partly specified),0.1,x,4.5,-2,2,-0.3,-7%,x,x,1
O=C(NC1CC1)C1=C[C@@H](c2ccc3c(c2)OCO3)C[C@@H](OCCCCO)O1,0.2,-5,-1.5,-1,12,12,2%,-0.2,2,-4
CCOC(=O)/C(=N\Nc1ccccc1Cl)N1CC(C)OC(C)C1 (stereo unspecified),0.0,12,4.0,8,9,2.5,x,-0.5,-18,0
COc1ccc(C2=NOC(C(=O)Nc3cccnc3)C2)cc1 (stereo unspecified),1.1,-3,x,x,x,x,4%,-1.5,2,0
CCOC(=O)C1CCN(C(=O)c2ccccc2NS(=O)(=O)c2cc(C)ccc2C)CC1,-0.6,-19,x,x,x,x,5%,1.0,-6,-10
Cc1cccc(-c2ccc(C=Nc3c(C)n(C)n(-c4ccccc4)c3=O)o2)c1,0.8,x,x,x,x,x,2%,x,7,-2
Cc1ccc2nc(-c3cccc(NC(=O)c4ccc5c(c4)OCCO5)c3)oc2c1,1.9,-24,x,14,6,6.9,26%,-1.3,-5,-3
COC(=O)CCC(=O)OC1(C)C(=O)C2=CN(Cc3ccc(OC)cc3)C(c3ccc(OC)cc3)=CC2=C(Br)C1=O (stereo unspecified),-1.1,15,x,0,-1,1.4,x,0.9,-7,-5
CC1CCN(CC(=O)Nc2cccc(Cl)c2)CC1,1.9,-6,1.0,-6,-8,-4.4,14%,2.9,6,-2
O=C(CN1CCc2ccccc21)Nc1ccc2c(c1)OCCCO2,-1.3,x,-0.5,7,14,-9.7,-15%,x,x,-3
Cn1c(=O)c2c(O)c(C=Nc3ccc(F)cc3)c(=O)n(C)c2n(C)c1=O,-0.4,-5,x,x,x,x,-5%,1.8,-22,-1
CC(C)(C)N=C1NN=C(c2ccc(S(=O)(=O)N3CCCCC3)cc2)CS1,0.4,17,-20,7,7,1.2,4%,-0.9,-10,x
COc1ccc(S(=O)(=O)N2CCN(C(=O)c3ccc4ccccc4n3)CC2)cc1,-0.3,x,0.6,-3,-2,0.2,2%,x,x,-2
Cc1ccc(C2NC(=O)NC(O)(C(F)(F)F)C2C(=O)c2ccccc2)o1 (stereo unspecified),-0.5,-9,x,x,x,x,19%,3.0,1,-9
CCC(C(=O)NC1CCCCC1)n1nc(C)c2c(C)n(-c3ccccc3)nc2c1=O (stereo unspecified),0.3,-3,-7.1,-3,2,1.5,-5%,1.4,-13,-6
COC(=O)c1c(NC(=O)CCCC(=O)O)sc(C)c1C,1.6,-8,x,x,x,x,0%,-1.5,-1,-4
O=C(O)CC1C(=O)NCCN1C/C=C/c1ccccc1 (stereo unspecified),-0.5,2,7.0,15,12,0.7,-1%,1.4,7,-6
CCCCN1CC(O)=C(c2nc3ccccc3s2)C1=N,-1.1,9,x,x,x,x,27%,3.5,4,-4
CC(C)(C)c1ccc(S(=O)(=O)n2c(CN3CCOCC3)nc3ccccc32)cc1,0.9,14,x,x,x,x,15%,-0.3,-8,x
CC(C)[C@H](NC(=O)c1ccccc1F)C(=O)NCCc1ccccc1,u,-8,-0.6,5,10,5.7,x,-0.5,-38,-6
Oc1ccc(C[C@H]2CNCCN2CCc2cccc(F)c2)cc1,-0.7,-21,1.5,4,-4,1.0,x,2.4,1,-7
Cc1cc(NCCCn2ccnc2)n2nc(C)c(-c3ccc(Cl)cc3)c2n1,0.6,46,x,x,x,x,-6%,2.2,51,48
Cc1ccc(CN2C(=O)C3CCCN3c3ncccc32)cc1 (stereo unspecified),0.3,25,2.4,-4,8,0.8,-3%,3.5,-9,-11
Cc1cc(C)cc(NC(=O)C2CCN(c3nc(C)cc(C)n3)CC2)c1,0.3,2,x,x,x,x,-6%,6.0,-31,-3
CCCS(=O)(=O)N1CCN(C2CCC(C)CC2)CC1 (stereo unspecified),1.0,15,-0.1,16,1,0.5,4%,-3.6,1,-8

# Already shown: 2 of the compounds above.
SMILES,A1 inh,T cruzi repl,AF4-AF9 inh,Ecoli rRNA inh,Ecoli rRNA inh OD600,Ecoli rRNA inh RFP,Vif TR-FRET,RanGTP-Impb inh,Calb FLC,Beta apoptosis
Cc1cccc(-c2ccc(C=Nc3c(C)n(C)n(-c4ccccc4)c3=O)o2)c1,0.8,x,x,x,x,x,2%,x,7,-2
Cc1ccc2nc(-c3cccc(NC(=O)c4ccc5c(c4)OCCO5)c3)oc2c1,1.9,-24,x,14,6,6.9,26%,-1.3,-5,-3

# The list continues.
SMILES,A1 inh,T cruzi repl,AF4-AF9 inh,Ecoli rRNA inh,Ecoli rRNA inh OD600,Ecoli rRNA inh RFP,Vif TR-FRET,RanGTP-Impb inh,Calb FLC,Beta apoptosis
C/C(=N\NC(N)=S)c1cc(-c2ccccc2)c(-c2ccccc2)s1,0.2,53,1.2,-1,0,6.3,x,1.2,5,x
COc1ccc(Nc2nc(-c3ccc4c(c3)NC(=O)CO4)cs2)cc1,-0.1,17,1.9,-1,0,0.5,x,2.5,30,11
Cc1ccc(/C=N/NC(=S)N2CCOCC2)cc1,-0.4,22,x,x,x,x,2%,1.8,-1,2
CCOC(=O)c1ccccc1NC(=S)N1CC(C)CC(C)C1 (stereo unspecified),0.1,4,-4.1,x,x,x,x,0.5,0,4
O=C1CC(N2CCC(c3nc4ccccc4s3)CC2)C(=O)N1Cc1ccccc1 (stereo unspecified),0.1,8,x,x,x,x,6%,2.5,9,0
COc1ccc(-c2nc(=S)[nH][nH]2)cc1OC,1.6,-24,-3.3,13,8,-0.7,10%,1.0,5,x
CCOC(=O)C1=C(C)Nc2nnnn2C1c1ccc(OC)c(Br)c1 (stereo unspecified),0.1,5,-1.6,-12,-27,-0.2,18%,4.6,2,-3
CC(C)CCOc1ccc(C2(C)NC(=O)N(CN3CCOCC3)C2=O)cc1 (stereo unspecified),0.1,-5,x,x,x,x,16%,1.3,-2,1
O=S(=O)(NCCc1csc(-c2cccnc2)n1)c1ccc(Cl)s1,-0.1,21,-1.2,-12,-9,7.6,2%,3.4,-1,-4
CCCCN(CC)CCCNC(=O)c1cc2c(-c3ccc(OC)c(OC)c3)nn(C)c2s1,0.6,44,4.7,-10,4,-0.1,-4%,-3.5,-9,-1
CCOc1ccc(Nc2nc(N)nc(CN3CCN(c4ccccc4F)CC3)n2)cc1,0.8,-16,7.3,-11,-9,1.1,-3%,4.4,40,-7
O=c1c([N+](=O)[O-])cccn1Cc1cccc(Cl)c1,0.1,38,-1.4,10,5,3.4,-2%,2.7,1,-3
Oc1ccccc1/C=N/NC(=S)NCCc1ccccc1,-0.9,-14,-23,-46,-57,-7.4,-6%,2.5,10,10
CCn1c(C(C)NC(=O)c2ccccc2C)n[nH]c1=S (stereo unspecified),0.1,-22,-5.0,-2,-14,-0.9,3%,-1.1,16,-2
Cc1cc(S(=O)(=O)NC2CCCCC2)ccc1OCC(=O)NCc1ccccn1,2.1,3,x,x,x,x,0%,0.2,5,-1
O=[N+]([O-])/C=C\c1ccc(N2CCCC2)c(F)c1,x,2,x,x,x,x,u,6.7,0,x
C/C(=C\C(=O)c1ccccc1)Nc1ccc(Br)c(Cl)c1,x,-2,7.3,11,3,3.5,x,1.2,-2,x
Cc1cc2c(n1-c1ccc(C(=O)O)cc1)CCCCC2,-0.4,-7,x,x,x,x,x,1.1,-8,-3
CN(C)S(=O)(=O)c1ccc(N2CCN(S(=O)(=O)c3ccc(F)cc3)CC2)c(Cl)c1,0.1,7,x,x,x,x,1%&-1%,-4.8,-7,17
CS(=O)(=O)N(CCC#N)Cc1ccco1,-0.2,-6,-1.3,23,18,2.8,0%,2.4,-10,2
CCC1CCCCN1C(=O)c1sc2ncnc(N(CC)CC)c2c1C (stereo unspecified),-0.7,-1,-1.3,-21,-32,-4.8,0%,-0.4,6,20
COc1ccc(S(=O)(=O)N2CCSC2c2ccc(N)cc2)cc1 (stereo unspecified),0.3,-6,x,x,x,x,24%,-1.7,-24,-2
CCNS(=O)(=O)c1ccc(NC(=O)Nc2cc(C)ccc2OC)cc1,-1.5,-9,1.2,-6,0,7.5,17%,4.7,-2,3

# Screening results: PubChem BioAssay, several laboratories
